NPYLR7 agonist – mosquito NPYLR7 agonism; AID 1259423; HEK293T NPYLR7/Galpha15, GCaMP6s calcium fluorescence; actives 0.15% (n = 270,000); activation, % at 10 µM; in the data active means activation above about 40%;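 further: 0% = vehicle and 100% = reference agonist at the receptor; some compounds past the cut are filed as inactive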
NPYLR7 agonist max-min – recorded beside NPYLR7 agonist, whose call it bears; activation, %; measured here: Max-Min RFU normalised activation; some inactives read as strong as hits;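 span of the calcium signal over five minutes; 0% = vehicle and 100% = native peptide agonist; compound fluorescence can raise it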
Starred values were filed as active, the others as inactive. An excerpt; rates above refer to the full screens.

#1 O=C(CSc1ncn[nH]1)c1ccc(O)cc1O
#2 COc1ccc(CCN2CC(C(=O)NCc3cccc4[nH]ccc34)CCC2=O)cc1 (stereo not given)
#3 Cc1ccc(S(=O)(=O)Nc2cc(-c3nn(C)c(=O)c4ccccc34)ccc2N2CCCCC2)cc1
#4 CCN(CC)c1ccc(CN(Cc2ccc(F)cc2)C(=O)NC(C)C)c(OS(C)(=O)=O)c1
#5 O=C(COc1ccc(Br)cc1)Nc1nc(-c2ccc([N+](=O)[O-])cc2)cs1
#6 CN(C)c1ccc(/C=C2\NC(=S)NC2=O)cc1

| assay / entry | 1 | 2 | 3 | 4 | 5 | 6 |
| --- | --- | --- | --- | --- | --- | --- |
| NPYLR7 agonist | 9.0 | 3.7 | 3.9 | 5.0 | -2.3 | -8.5 |
| NPYLR7 agonist max-min | 11.5 | 0.7 | 6.8 | 8.1 | -10.3 | -10.9 |

Full records from above.
COc1ccc(CCN2CC(C(=O)NCc3cccc4[nH]ccc34)CCC2=O)cc1 (stereo not given) is listed as NPYLR7 agonist: 3.7; NPYLR7 agonist max-min: 0.7
CN(C)c1ccc(/C=C2\NC(=S)NC2=O)cc1 is listed as NPYLR7 agonist: -8.5; NPYLR7 agonist max-min: -10.9

Reformatted: 2 of the compounds above
5: O=C(COc1ccc(Br)cc1)Nc1nc(-c2ccc([N+](=O)[O-])cc2)cs1
  NPYLR7 agonist: -2.3
  NPYLR7 agonist max-min: -10.3

3: Cc1ccc(S(=O)(=O)Nc2cc(-c3nn(C)c(=O)c4ccccc34)ccc2N2CCCCC2)cc1
  NPYLR7 agonist: 3.9
  NPYLR7 agonist max-min: 6.8

(more compounds)
#7 CCCCN(Cc1ccco1)C(=O)c1cc(S(N)(=O)=O)ccc1C
#8 CCOC(=O)N1CCN(C(=O)CSc2nc3c([nH]c4ccccc43)c(=O)n2CCOC)CC1
#9 COCCN(Cc1cnn(C)c1)C(=O)c1onc2ccccc12
#10 Cc1cccc(NC(=O)Nc2c(C)nc3ccccn3c2=O)c1C
#11 COc1ccccc1OCC(=O)NCC(c1ccc2c(c1)CCCN2C)N1CCN(C)CC1 (stereo not given)
#12 CN1C(C(=O)c2ccccc2)=C(N2CCCCC2)c2ccccc2S1(=O)=O

| assay / entry | 7 | 8 | 9 | 10 | 11 | 12 |
| --- | --- | --- | --- | --- | --- | --- |
| NPYLR7 agonist | -6.5 | -2.0 | -5.9 | 8.8 | 6.1 | 18.9 |
| NPYLR7 agonist max-min | -7.0 | -3.2 | -7.3 | 5.5 | 3.1 | 13.3 |

#13 c1cncc(COC2CCN(CC3CCOC3)CC2)c1 (stereo not given)
#14 COc1ccc(-c2nnc3ccc(SCC(=O)Nc4ccc(NC(C)=O)cc4)nn23)cc1OC
#15 C[N+](C)(C)CCOP(=O)(O)OP(=O)(O)OC[C@H]1OC(n2ccc(N)nc2=O)[C@H](O)[C@@H]1O (stereo not given in full)
#16 COCCN(C)C(=O)Nc1c(-c2ccc(F)cc2)nc2sccn12
#17 Cc1ccc(C2(O)CCN(C(=O)C(C)n3cnc4ccccc43)CC2)nc1 (stereo not given)
#18 CC(C)(C)c1ccc(CN2C(=O)C3CCCN3C2=O)cc1 (stereo not given)
#19 CCOc1ncccc1C(=O)N1CCC(C(=O)c2ccc(O)cc2)CC1

| assay / entry | 13 | 14 | 15 | 16 | 17 | 18 | 19 |
| --- | --- | --- | --- | --- | --- | --- | --- |
| NPYLR7 agonist | 5.8 | 1.2 | -10.2 | 0.9 | -4.2 | 3.7 | -2.2 |
| NPYLR7 agonist max-min | -0.7 | 15.4 | -17.4 | -0.7 | -7.6 | 2.9 | 3.7 |

Assay outcomes as filed in PubChem BioAssay.
